Six1-Eya2 inh: Six1/Eya2 interaction inhibition; activity change, % (test concentration not listed); Q15475+O00167; 360,000 tested, 0.56% active; AID 651725; AlphaScreen GST-Six1/His-Eya2 binding, biochemical; stronger effect = lower value; control for the full effect not named in the record; in the data active = activity change below about -65%; inconclusive = about -30% to -65%; inactive = above about -30%; also: % is scaled to controls: 0 for no effect and ±100 for the full control effect; compound concentration not given in the record
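Six1/Eya2 binding was read as AlphaScreen signal after compounds were pinned into GST-Six1 plus His-tagged Eya2 (5X stock 250/500 nM) in pH 8.0 Tris/NaCl/TCEP buffer, beads added, then incubated 1 h, 37 C, dark.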
D2 potentiator: potentiates the human D2 dopamine receptor allosterically; P14416; DiscoveRx D2 beta-arrestin cells, luminescence, 90 min; 100% = 57 uM dopamine signal; potentiation, % (no concentration beside the values); 360,000 tested, 0.23% active; AID 624464; active = potentiation of 50% or more; inconclusive = 30% to 50%; inactive = 30% or less;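 also: compound concentration not given in the record; tested on top of an EC20 dose of dopamine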
Target sequence (P14416 whole entry, looked up): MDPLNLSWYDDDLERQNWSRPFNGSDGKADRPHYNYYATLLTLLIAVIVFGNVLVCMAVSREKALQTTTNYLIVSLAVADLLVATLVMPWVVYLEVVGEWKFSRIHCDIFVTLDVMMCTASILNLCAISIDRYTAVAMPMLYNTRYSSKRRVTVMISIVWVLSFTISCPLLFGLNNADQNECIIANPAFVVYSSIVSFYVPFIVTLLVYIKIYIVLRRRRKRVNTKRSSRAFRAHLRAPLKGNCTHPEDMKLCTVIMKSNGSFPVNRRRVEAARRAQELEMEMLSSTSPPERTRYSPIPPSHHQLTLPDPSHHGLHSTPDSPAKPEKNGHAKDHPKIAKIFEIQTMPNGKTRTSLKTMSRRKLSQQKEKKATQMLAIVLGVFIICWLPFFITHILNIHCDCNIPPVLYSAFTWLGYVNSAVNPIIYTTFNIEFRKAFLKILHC
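PathHunter D2 cells, attached overnight at 37 deg C, received compound in DMSO plus dopamine at EC20 (50 nM final) for 90 min at 37 deg C. Beta-arrestin recruitment was read as luminescence after 1 h with detection reagent at ambient temperature.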
PINK1 expr mod: changes PINK1 expression | PINK1 immunofluorescence, high-content cytometry, 24 h | Potency, µM (highest dose often 76.6 µM), for the others: at the top dose activation (PINK1 increase), usual class: activators | 410,000 tested, 0.2% active | AID 624263; active = well fitted activation curve with a large enough effect; inconclusive = small, poorly fitted or top-dose-only effect; inactive = flat fitted curve, though single readings scatter; cell line not stated here;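 also: potency is read from the fitted curve at half-maximal effect; % of control where 0% means no effect; nearly all actives have a fitted effect of over 65% in size; a mitochondrial uncoupler was the plate control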
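Fluorescence from anti-PINK1 antibody, together with nuclear and cell stains, was scanned on a laser-scanning cytometer. Before staining, stable-line cells were incubated 24 hours with compounds at 5 concentrations; primary antibody 12 h at 10 degrees C.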
CtBP-E1A blk: CtBP/E1A binding inhibition; activity change, % (test concentration not listed); 340,000 tested, 0.49% active; AlphaScreen GST-E1A/His-CtBP binding, 1536-well; stronger effect = lower value; control for the full effect not named in the record; AID 651724; in the data active means activity change below about -65%; inconclusive means about -30% to -65%; inactive means above about -30%; also: % is scaled to controls: 0 for no effect and ±100 for the full control effect; compound concentration not given in the record
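AlphaScreen with 125 nM GST-E1A and 125 nM His-CtBP (5X stocks) in Tris pH 8.0, 300 mM NaCl, BSA, Tween 20, TCEP. Compounds preincubated 2 h at 37 deg C, then glutathione donor/nickel acceptor beads added for 1 h at 37 deg C in dark.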
D2 agonist: activates the human D2 dopamine receptor | 360,000 tested, 0.084% active | P14416 | DiscoveRx PathHunter D2 beta-arrestin, luminescence, 90 min; 100% = 57 uM dopamine signal | activation, % (concentration not given with the values); in the data active = activation above about 40%; inconclusive = about 15% to 40%; inactive = below about 15%; also: compound concentration not given in the record; the text of the record calls up to 30% inactive
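Agonist mode: compounds alone added to overnight-plated D2 PathHunter cells for 90 min at 37 C, with 57 uM final dopamine (EC100) defining full response. Beta-arrestin recruitment detected by chemiluminescent reagent, read after 1 h at ambient temperature.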
TRPML1 agonist: activates the human TRPML1 channel; activation, % (test concentration not listed); TRPML1-expressing cells, Ca2+ dye fluorescence, FDSS; host cell line not named in the record; reference of the full effect not given here; 410,000 tested, 0.12% active; in the data active = activation above about 50%; inconclusive = about 30% to 50%; inactive = below about 30%; also: 0% is about no effect; the text of the record puts the active cut at 80%
Target sequence (Q9GZU1 whole entry, looked up): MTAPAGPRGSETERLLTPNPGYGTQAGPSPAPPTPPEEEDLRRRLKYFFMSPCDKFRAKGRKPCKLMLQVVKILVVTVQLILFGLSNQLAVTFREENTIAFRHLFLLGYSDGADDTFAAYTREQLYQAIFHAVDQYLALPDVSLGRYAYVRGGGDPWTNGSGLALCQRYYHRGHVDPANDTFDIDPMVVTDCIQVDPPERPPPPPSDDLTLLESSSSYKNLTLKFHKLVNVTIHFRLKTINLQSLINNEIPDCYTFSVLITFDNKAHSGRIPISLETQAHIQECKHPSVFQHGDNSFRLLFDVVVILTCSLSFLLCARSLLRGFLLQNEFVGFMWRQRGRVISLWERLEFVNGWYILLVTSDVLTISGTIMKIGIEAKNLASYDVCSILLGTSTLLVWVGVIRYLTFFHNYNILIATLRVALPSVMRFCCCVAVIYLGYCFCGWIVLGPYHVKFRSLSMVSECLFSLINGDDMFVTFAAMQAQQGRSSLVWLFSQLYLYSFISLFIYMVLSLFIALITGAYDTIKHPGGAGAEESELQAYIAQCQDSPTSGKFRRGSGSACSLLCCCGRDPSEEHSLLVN
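Kinetic FDSS Ca2+ read in Tet-induced TRPML1-DL cells (ABD Ca8 dye plus quencher, 45-90 min RT loading): baseline, then compound, then 110 s agonist window; EC80 agonist 54-4 at 4uM final added afterwards for a 110 s antagonist window.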
Numbers without * were called inactive; ? = inconclusive; nt = no result given; & = joins results of further samples; [ ] = dose if it differs, or a comment.

SMILES	Six1-Eya2 inh	D2 potentiator	PINK1 expr mod	CtBP-E1A blk	D2 agonist	TRPML1 agonist
O=C(CCn1nnc2ccccc21)OCC(=O)c1ccc(F)cc1	2	-6	-2.6%	5	-3.9	-0.6
CC(=O)c1sc(N)nc1C	18&7	-1&-6	2.5%&-1.8%	-17&5	-4.5&-4.3	0.0&-0.7
S=C(Nc1cccnc1)NC1CC2CCC1C2 (configuration not stated)	2	9	0.2%	2	0.1	-0.3
CC(C)c1ccc(NC(=O)CCNC(=O)Cn2cnc3ccccc3c2=O)cc1	21	-1	14%	-4	3.5	-1.9
COc1ccc(C(=O)NNC(=O)CSc2nnc(COc3ccccc3)n2C)cc1	2	-3	-1.0%	-1	1.2	0.3
COC(C[C@@H](O)C[C@@H](O)[C@@H](C)OCc1ccccc1)OC	-11	-9	1.7%	-9	-1.0	-0.7
CCOc1ccccc1NC(=O)COC(=O)/C=C/c1cccs1	5	-6	8.3%	8	-0.9	-0.3
COC(=O)CSc1nc(N)nc(C)c1Cl	4	-3	1.0%	6	-3.8	-0.5
O=C(NNC(=O)c1ccccc1O)c1ccc(-c2ccc([N+](=O)[O-])cc2)o1	-15	0	2.3%	-14	1.4	-0.5
CCOc1ccc(-c2nnn(CCC(=O)O)n2)cc1OC	-1	-6	-0.4%[38.3 µM]	3	0.5	-0.6
NC(=O)CC(NC(=O)c1cccc(Br)c1)c1ccc(NC2CCCCCCCCCCC2)c([N+](=O)[O-])c1 (configuration not stated)	1	-7	8.3%	3	-4.0	-0.1
Cc1ccc(Nc2nc3c(s2)CCC3)c(C)c1	-6	-10	-1.5%	-5	-0.2	3.4
CCCc1ccc(S(=O)(=O)NCc2nnc(SC)n2C)cc1	13	-5	1.2%	-5	-1.5	0.3
CN(C(=O)CSc1nc(-c2ccc(F)cc2)cs1)C1CCS(=O)(=O)C1 (configuration not stated)	5	-10	-4.6%[38.3 µM]	5	-1.0	-0.1
COc1ccc(C(=O)/C=C/c2ccc(OC)c(CN3CCOCC3)c2)cc1	-21	-4	-3.1%	?	-0.7	-0.2

Complete entries from above:
O=C(NNC(=O)c1ccccc1O)c1ccc(-c2ccc([N+](=O)[O-])cc2)o1 is entered as Six1-Eya2 inh = -15; D2 potentiator = 0; PINK1 expr mod = 2.3%; CtBP-E1A blk = -14; D2 agonist = 1.4; TRPML1 agonist = -0.5
CC(=O)c1sc(N)nc1C is entered as Six1-Eya2 inh = 18&7; D2 potentiator = -1&-6; PINK1 expr mod = 2.5%&-1.8%; CtBP-E1A blk = -17&5; D2 agonist = -4.5&-4.3; TRPML1 agonist = 0.0&-0.7

As a working copy, some entries already given.
SMILES	Six1-Eya2 inh	D2 potentiator	PINK1 expr mod	CtBP-E1A blk	D2 agonist	TRPML1 agonist
CCCc1ccc(S(=O)(=O)NCc2nnc(SC)n2C)cc1	13	-5	1.2%	-5	-1.5	0.3
CN(C(=O)CSc1nc(-c2ccc(F)cc2)cs1)C1CCS(=O)(=O)C1 (configuration not stated)	5	-10	-4.6%[38.3 µM]	5	-1.0	-0.1
COc1ccc(C(=O)/C=C/c2ccc(OC)c(CN3CCOCC3)c2)cc1	-21	-4	-3.1%	?	-0.7	-0.2

Copied from the list.
Entry of `CCOc1ccc(-c2nnn(CCC(=O)O)n2)cc1OC` in D2 potentiator: -6
Entry of `NC(=O)CC(NC(=O)c1cccc(Br)c1)c1ccc(NC2CCCCCCCCCCC2)c([N+](=O)[O-])c1` (configuration not stated) in D2 agonist: -4.0
Entry of `CCCc1ccc(S(=O)(=O)NCc2nnc(SC)n2C)cc1` in Six1-Eya2 inh: 13
Entry of `COc1ccc(C(=O)NNC(=O)CSc2nnc(COc3ccccc3)n2C)cc1` in TRPML1 agonist: 0.3
Entry of `CC(=O)c1sc(N)nc1C` in PINK1 expr mod: 2.5%&-1.8%
Entry of `CC(C)c1ccc(NC(=O)CCNC(=O)Cn2cnc3ccccc3c2=O)cc1` in D2 agonist: 3.5

Remaining list, next part
SMILES	Six1-Eya2 inh	D2 potentiator	PINK1 expr mod	CtBP-E1A blk	D2 agonist	TRPML1 agonist
Cc1ccc(Nc2nnc(SCC(=O)Nc3cccc(S(=O)(=O)NC4=NCCCCC4)c3)s2)c(C)c1	-15	-2	5.9%	4	-2.4	0.7
COc1ccc(CCNC(=O)Cc2cc(OC)c(OC)cc2Br)cc1OC	8	-1	-0.8%	-9	-3.0	-0.5
CCn1c(SCc2ccccc2)nnc1C1CCN(S(=O)(=O)c2ccc(OC)cc2)CC1	-1	1	-3.0%	1	5.3	2.6
COc1ccc(S(=O)(=O)N2CCOCC2)cc1NC(=O)C1CCCCN1S(=O)(=O)c1ccccc1 (configuration not stated)	-20	8	3.5%	-21	7.1	1.8
CC(C)(C)OC(=O)C[C@@H]1C/C=C\C[C@@H](CC(=O)N(CCO)Cc2ccccc2)C(=O)NC[C@@H](c2ccccc2)OC1=O	13	-15	-0.9%	-23	-8.5	-0.3
C=CCNC(=O)c1c(CSc2ccc(Cl)cc2)noc1C(=O)NCc1ccccc1	19	-5	-0.4%	33	-0.8	3.2
COC(=O)c1c(N2C(=O)[C@H]3[C@@H](C2=O)[C@]2(C(=O)Nc4c2ccc(C)c4C)N2CCC[C@@H]32)sc(C)c1C	-20	-9	26%	-6	-2.0	0.3
O=C(CSCc1ccc(F)cc1)Nc1nc2c(s1)CCCC2	-2	-28	-0.2%	-13	-0.1	0.7
COc1ccc(OC)c(S(=O)(=O)N2CCC3(CC2)CC(=O)c2ccccc2O3)c1	-5	14	-0.8%	2	3.7	0.9
C[C@H](CO)N1C[C@H](C)[C@H](CN(C)C(=O)CC2CC2)Oc2cc(Br)ccc2S1(=O)=O	1	0	-0.6%	1	-4.7	0.2
CC(C)N=C(NC#N)SCc1ccccc1	0	-14	1.2%	0	-4.7	-0.7
COc1cc(C(=O)Nc2cccnc2)cc(OC)c1OC	-6	-5	0.5%	-1	0.4	0.7
Cc1ccc(-n2nc3c(=O)n(CC(=O)c4ccc(F)cc4)nc(C)c3c2C)cc1	5	4	1.6%	-10	-0.1	2.2
COc1cccc(CC(NC(C)=O)C(=O)NC2CCN(S(=O)(=O)c3ccc(F)cc3)CC2)c1OC (configuration not stated)	5	-9	-1.6%	7	-0.2	1.1
COc1ccc(-c2c(C#N)c(SCC(N)=O)nc3c2CCCC3)cc1	-1	-2	-1.1%	-2	0.2	0.3
CCCNC(=O)Nc1cccc(C(=O)OC)c1	-1	-20	2.0%	nt	-4.1	-0.6
O=C(CCSc1ccccc1)Nc1ccc(S(=O)(=O)N2CCOCC2)cc1	-3	2	-0.3%	0	-1.7	1.5
CC(NCc1cc(Br)ccc1OCC(N)=O)C12CC3CC(CC(C3)C1)C2 (configuration not stated)	1	-7	0.8%	nt	5.4	-0.8
COc1ccccc1C(CNC(=O)c1ccc(NS(=O)(=O)c2ccc(F)c(C)c2)cc1)N1CCCC1 (configuration not stated)	5	-27	-0.9%	3	-4.4	-0.7
Cc1csc(SCc2ccccc2C(=O)O)n1	1	-15	-0.9%	7	-6.8	-0.2
Nc1ccn([C@@H]2O[C@H](C(=O)N[C@H]3c4ccccc4C[C@H]3O)[C@@H](O)[C@H]2O)c(=O)n1	3	-3	-0.2%	7	-3.2	0.2
O=C1Nc2ccccc2C(O)(C(=O)NC2CC2)N1c1ccc(Cl)c(Cl)c1 (configuration not stated)	4	1	-0.9%	5	-1.3	-0.8
Cc1cc(C)c2c(-n3cccc3)nn(C)c2n1	13	-29	-0.9%	0	-4.1	0.5
CN1CCN(c2cc(CNC[C@H]3O[C@@H](n4cnc5c(=O)[nH]c(N)nc54)[C@H](O)[C@@H]3O)ccc2F)CC1	6	1	1.9%	-19	-6.2	-0.2
Cc1ccc2[nH]c(=O)c(CN(CCO)Cc3nnnn3CCc3ccccc3)cc2c1	-8	-16	1.4%	-7	-1.6	-0.7
COc1ccccc1CNC(=O)CCN1C(=O)c2ccccc2C1=O	4	-2	2.6%	5	0.9	-1.0
COc1cc(-c2coc3c(C(=O)Nc4ccc(C(C)C)cc4)cccc23)ccc1O	-1	-4	7.8%	3	9.1	2.7
COc1ccc(C(=O)NN2C(=O)C3CCC(C)(C2=O)C3(C)C)cc1 (configuration not stated)	-6	-5	5.5%[38.3 µM]	-15	-4.4	-0.3
Cc1ccc(C(=O)N2CCC(N3CCC(C(=O)N4CCOCC4)CC3)CC2)cc1	-3	-3	-1.1%	2	-4.1	-1.0
CCN1CCN(c2ccc(S(=O)(=O)N3CCCCC3)cc2NC(=O)COc2ccc(F)cc2Cl)CC1	-17	-22	0.0%	-19	-3.5	0.9
COc1ccc(/C=N/N2C(=O)C3C4C=CC(C4)C3C2=O)cc1[N+](=O)[O-] (configuration not stated)	9	-3	2.7%	-2	-3.8	-0.3
COC(=O)[C@]12CCCCC=C1N(Cc1ccccc1)C(=O)[C@H](CC(=O)NCCc1ccccc1OC)C2	-5	nt	0.7%	-1	nt	-0.7
CN1CCN(C(=O)c2ccc(Cl)c(S(=O)(=O)N3CCCCCC3)c2)CC1	-2	6	-0.5%	0	0.3	0.8
N#Cc1ccc(-c2ccc(Cl)cc2)nc1Oc1ccc(F)cc1	5	-5	?	49	-2.6	-0.3
Cc1ccccc1C(=O)OCC(=O)NCC1COc2ccccc2O1 (configuration not stated)	0	-14	0.0%	-3	-3.3	0.5
COC(=O)C(NC(=O)CSc1nc(N)cc(=O)[nH]1)c1ccccc1 (configuration not stated)	0	-5	-2.1%	9	-0.1	0.0
CCC(C)NS(=O)(=O)c1ccc(S(=O)(=O)N2CCCC3(CCCCC3)C2)cc1 (configuration not stated)	0	7	5.0%	0	3.2	0.5
Cc1ccccc1NC(=S)NCc1ccc2c(c1)cc(C)n2C	-29	-5	5.0%	-1	1.9	0.9
CCOC(=O)c1cnc2ccc(OCC)cc2c1N1CCN(C)CC1	-9	-15	-2.4%	-6	-3.2	0.6
CCOC(=O)N1CCC(NC(=O)Cn2c3c(c(-c4ccccc4Cl)cc2=O)CCC3)CC1	0	1	1.2%	-4	-0.2	0.0
NC(=O)C1CCN(CC(=O)c2c[nH]c3ccc(F)cc23)CC1	15	-12	1.5%	19	1.3	0.6
Cc1ccc(-c2[nH][nH]c(=O)c(=O)c2N=Nc2ccccc2)cc1	4	0	-1.2%	7	-3.8	nt
COc1ccc(Cc2nc3ccc(C(=O)N4C[C@@H](C)O[C@@H](C)C4)cc3o2)cc1OC	0	3	0.2%	-1	2.3	-0.4
Cc1onc(-c2ccccc2Cl)c1C(=O)NC(C)c1ccccc1 (configuration not stated)	13	4	0.5%	6	6.2	0.2
CC(=O)Nc1ccccc1C(=O)C(=O)Nc1cccc(Br)c1	2	-20	0.8%	-1	-4.7	-0.6
O=C1c2cccc3cc([N+](=O)[O-])cc(c23)C(=O)N1c1nncs1	-3	2	3.6%	2	8.4	1.5
COc1ccc(N(C(=O)CNC(=O)c2ccco2)C(C(=O)NC2CCCCC2)c2ccco2)cc1 (configuration not stated)	-2	-3	-0.1%	-3	-2.0	-0.3
COc1ccc(C(=O)NC(C)C2CC3CCC2C3)cc1 (configuration not stated)	20	-28	0.0%	0	-6.4	-1.1

Compound activity (PubChem)
